Bioassay records as filed in PubChem BioAssay.
Vaccinia inh = blocks a specific stage of Vaccinia orthopoxvirus infection, primary screen, cell-based, single point; Vaccinia-infected cells, mCherry/Venus stage reporter fluorescence; hits give low values; some inactives read as strong as hits; activity change (mCherry), % (test concentration not listed); 89,000 compounds, 0.01% hits; AID 1053133, 2014;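 active = mCherry past -33% and 40 or more points under the early reporter, replicates agreeing; inconclusive = past -33% without that gap or agreement; tested in A549 cells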;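 note: scaled between vehicle wells and reference inhibitor wells; 23 nL library stock went into each well; one replicate is shown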
Vaccinia inh Venus = also measured in Vaccinia inh; calls as there; activity change (Venus), %; measured here: Venus reporter, other viral stage;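 negative = less Venus signal; first of two replicates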
The depositor's hits bear a star; u = inconclusive; x = not tested or not shown. An excerpt (hit frequency here may not be typical).

[1] CC=Cc1ccc2n(c1=O)C[C@@H]1[C@@H](CO)[C@H](C(=O)NCC(F)(F)F)[C@H]2N1C(=O)C1CCCC1 (mixture of isomers)
[2] COc1cccc(-c2ccc([C@@H]3[C@H]4CN(CC5CCOCC5)CCCCN4[C@H]3CO)cc2)c1
[3] O=C(C[C@@H]1C=C[C@@H](NC(=O)CCN2CCCCC2)[C@@H](CO)O1)Nc1nccs1
[4] COC(=O)C1=C2CC[C@H](CO)NC(=O)N[C@H](Cc3ccccc3)C(=O)NCc3cn(nn3)C[C@@H](Cc3ccccc3)NC(=O)c3oc(c(C(=O)OC)c3C(=O)OC)CC[C@H](CO)NC(=O)N[C@H](Cc3ccccc3)C(=O)NCc3cn(nn3)C[C@@H](Cc3ccccc3)NC(=O)C(=C1C(=O)OC)O2
[5] C[C@@H]1CCCCO[C@@H](CN(C)CC2CCCCC2)[C@H](C)CN([C@@H](C)CO)C(=O)c2cc(NC(=O)CCCN(C)C)ccc2O1
[6] Cc1noc(C)c1S(=O)(=O)N(C)C[C@H]1OCCCC[C@@H](C)Oc2ccc(NS(=O)(=O)c3cn(C)cn3)cc2C(=O)N([C@@H](C)CO)C[C@H]1C
[7] CCS(=O)(=O)N1CC(=O)N2[C@H](CO)[C@H](c3ccc(-c4ccc(F)cc4)cc3)[C@@H]2C1
[8] CO[C@H]1CN(C)C(=O)c2cc(NC(C)=O)ccc2OC[C@H](C)N(C(=O)c2ccc(F)cc2)C[C@H]1C

screen / no.	1	2	3	4	5	6	7	8
Vaccinia inh	21	-5	-3	0	-4	10	-5	16
Vaccinia inh Venus	16	-8	9	1	-4	5	-9	9

[9] COc1ccc(NC(=O)N(C)C[C@@H]2Oc3ccc(NS(=O)(=O)c4c(C)noc4C)cc3C(=O)N([C@H](C)CO)C[C@@H]2C)cc1
[10] COc1ccc(NC(=O)Nc2ccc3c(c2)C(=O)N([C@@H](C)CO)C[C@H](C)[C@@H](CN(C)C(=O)Nc2ccc(F)cc2)OCCCC[C@H](C)O3)cc1
[11] COc1ccc(S(=O)(=O)N(C)C[C@@H]2OCCCC[C@H](C)Oc3ccc(NS(=O)(=O)c4cn(C)cn4)cc3C(=O)N([C@H](C)CO)C[C@@H]2C)cc1
[12] C[C@@H]1CCCCO[C@@H](CN(C)S(=O)(=O)c2ccccc2)[C@@H](C)CN([C@@H](C)CO)C(=O)c2cc(NC(=O)Nc3ccccc3)ccc2O1
[13] COc1ccc(C#Cc2cccc(-c3nc(C(=O)N[C@@H]4CCN(Cc5ccccc5)C4)cc4c3[C@H](CCO)N(S(=O)C(C)(C)C)C4)c2)cc1OC (stereo not given in full)
[14] COc1ccc(NC(=O)N(C)C[C@H]2Oc3c(NC(=O)C4CC4)cccc3C(=O)N([C@@H](C)CO)C[C@@H]2C)cc1
[15] C[C@H]1CN([C@@H](C)CO)C(=O)Cc2cc(N(C)C)ccc2O[C@@H]1CN(C)C(=O)Nc1ccc(C(F)(F)F)cc1
[16] COc1ccc(CN(C)C[C@H]2Oc3c(NC(=O)CCCCCC(=O)Nc4ccccc4N)cccc3C(=O)N([C@H](C)CO)C[C@@H]2C)cc1

screen / no.	9	10	11	12	13	14	15	16
Vaccinia inh	47	-14	28	24	4	3	-7	-26
Vaccinia inh Venus	40	0	15	25	17	8	-17	-9

[17] C[C@H]1CN([C@@H](C)CO)C(=O)c2cc(NC(=O)Cc3ccccc3)ccc2O[C@H]1CN(C)S(=O)(=O)c1cccs1
[18] CC(C)NC(=O)N(C)C[C@H]1OCCCC[C@H](C)Oc2ccc(NC(=O)Nc3ccccc3)cc2C(=O)N([C@H](C)CO)C[C@@H]1C
[19] COC(=O)C[C@H]1CC[C@@H](NS(=O)(=O)c2ccccc2F)[C@@H](CO)O1
[20] O=C(N[C@H]1C=C[C@H](CC(=O)N2CCCCC2)O[C@@H]1CO)c1cccc(F)c1
[21] C[C@@H]1CN([C@H](C)CO)C(=O)CCCn2nncc2CO[C@H]1CN(C)C(=O)CCCN(C)C
[22] CCNC(=O)C[C@@H]1CC[C@H]2[C@@H](COc3ccc(NC(=O)Nc4ccc(C)cc4)cc3C(=O)N2C)O1
[23] C[C@H]1CN([C@@H](C)CO)C(=O)c2cccc(NC(=O)CCCCCC(=O)Nc3ccccc3N)c2O[C@H]1CN(C)S(=O)(=O)c1cccs1
[24] CC(C)NC(=O)Nc1ccc2c(c1)C(=O)N([C@@H](C)CO)C[C@@H](C)[C@@H](CN(C)C(=O)c1ccncc1)OCCCC[C@@H](C)O2

screen / no.	17	18	19	20	21	22	23	24
Vaccinia inh	8	14	7	13	18	4	38	20
Vaccinia inh Venus	3	-6	15	16	9	-3	10	12

[25] CO[C@@H]1CN(C)C(=O)c2ccc(NC(=O)c3ccccc3)cc2OC[C@@H](C)N(CC2CC2)C[C@@H]1C
[26] C[C@@H]1CN([C@H](C)CO)C(=O)c2cc(NC(=O)Nc3ccccc3)ccc2O[C@@H](C)CCCCO[C@H]1CN(C)Cc1ccc2c(c1)OCO2
[27] CNC[C@H]1Oc2c(NS(=O)(=O)c3cccs3)cccc2C(=O)N([C@@H](C)CO)C[C@@H]1C
[28] C[C@@H]1CN([C@@H](C)CO)C(=O)Cc2cc(NS(C)(=O)=O)ccc2O[C@H]1CN(C)CC1CC1
[29] CC(C)CC#Cc1ccc2c(c1)O[C@@H](CN(C)C(=O)c1ccccc1F)[C@@H](C)CN([C@H](C)CO)S2(=O)=O
[30] CN(C)CC#Cc1ccc([C@H]2[C@H](CO)N3CCCCN(CC4CCOCC4)C[C@@H]23)cc1
[31] C[C@@H]1CN([C@@H](C)CO)C(=O)c2cc(NC(=O)Nc3cccc4ccccc34)ccc2O[C@@H]1CN(C)C(=O)Nc1cccc2ccccc12
[32] C[C@@H]1CN([C@H](C)CO)C(=O)c2cccc(NC(=O)c3cnccn3)c2O[C@H]1CN(C)S(=O)(=O)c1cn(C)cn1

screen / no.	25	26	27	28	29	30	31	32
Vaccinia inh	2	u	3	7	u	5	35	1
Vaccinia inh Venus	1	x	9	6	x	6	30	18

[33] C[C@@H]1CN([C@H](C)CO)C(=O)Cc2cc(NS(=O)(=O)c3cccs3)ccc2O[C@H]1CN(C)C(=O)Nc1ccc(F)cc1
[34] C/C=C/c1cnc2c(c1)C(=O)N([C@@H](C)CO)C[C@H](C)[C@H](CN(C)S(=O)(=O)c1ccccc1)O2
[35] CC(C)NC(=O)NCC[C@H]1CC[C@H](NC(=O)Nc2ccccc2)[C@@H](CO)O1
[36] Cc1noc(C)c1NC(=O)N(C)C[C@H]1OCCCC[C@H](C)Oc2ccc(NC(=O)Nc3ccc4c(c3)OCO4)cc2C(=O)N([C@H](C)CO)C[C@@H]1C
[37] C[C@@H]1CN([C@H](C)CO)C(=O)c2cc(NC(=O)NC3CCCCC3)ccc2O[C@@H](C)CCCCO[C@@H]1CN(C)C(=O)NC1CCCCC1
[38] Cc1noc(C)c1NC(=O)Nc1ccc2c(c1)C(=O)N(C)[C@H]1CC[C@@H](CC(=O)N[C@H]3CCN(Cc4ccccc4)C3)O[C@H]1CO2
[39] Cc1ccc(S(=O)(=O)Nc2ccc3c(c2)C(=O)N([C@H](C)CO)C[C@H](C)[C@H](CN(C)S(=O)(=O)c2cccs2)OCCCC[C@H](C)O3)cc1
[40] CC(C)NC(=O)N(C)C[C@@H]1OCCCC[C@@H](C)Oc2ccc(NC(=O)CCC(F)(F)F)cc2C(=O)N([C@@H](C)CO)C[C@@H]1C

screen / no.	33	34	35	36	37	38	39	40
Vaccinia inh	26	-3	14	31	4	2	-26	9
Vaccinia inh Venus	15	-18	9	15	-5	-2	-14	-3

Compound profiles (already shown):
`Cc1noc(C)c1S(=O)(=O)N(C)C[C@H]1OCCCC[C@@H](C)Oc2ccc(NS(=O)(=O)c3cn(C)cn3)cc2C(=O)N([C@@H](C)CO)C[C@H]1C` in the list: Vaccinia inh: 10; Vaccinia inh Venus: 5
`CC(C)CC#Cc1ccc2c(c1)O[C@@H](CN(C)C(=O)c1ccccc1F)[C@@H](C)CN([C@H](C)CO)S2(=O)=O` in the list: Vaccinia inh: u; Vaccinia inh Venus: x

Other structures follow.
[41] C[C@H]1CN([C@@H](C)CO)C(=O)c2cccc(NC(=O)NC3CCCCC3)c2O[C@@H]1CN(C)S(=O)(=O)c1cccs1
[42] C[C@H]1CN([C@@H](C)CO)C(=O)c2cccc(NC(=O)c3ccncc3)c2O[C@H]1CN(C)C(=O)Nc1ccc2c(c1)OCO2
[43] O=C(C[C@H]1CC[C@H](NS(=O)(=O)c2ccc(F)cc2)[C@@H](CO)O1)NCCc1ccncc1
[44] CC=Cc1ccc2n(c1=O)C[C@@H]1[C@@H](CO)[C@H](C(=O)NCc3ccccc3Cl)N(S(C)(=O)=O)[C@H]21 (mixture of isomers)
[45] O=C(C[C@@H]1CC[C@@H]2[C@H](COC[C@H](O)CN2Cc2cccc(C(F)(F)F)c2)O1)NCc1ccncc1
[46] C[C@H]1CN([C@@H](C)CO)C(=O)c2cccc(NC(=O)Nc3ccc(C(F)(F)F)cc3)c2O[C@@H]1CN(C)S(C)(=O)=O
[47] CCC(=O)N(C)C[C@@H]1[C@@H](c2ccc(-c3cccnc3)cc2)[C@H](CO)N1C(C)=O
[48] CN(C)c1ccc2c(c1)[C@@H]1C[C@H](CC(=O)O)O[C@H](CO)[C@@H]1O2

screen / no.	41	42	43	44	45	46	47	48
Vaccinia inh	-13	3	28	14	u	-9	11	-5
Vaccinia inh Venus	-12	6	24	8	x	-4	4	1

[49] COc1ccc(C#Cc2ccc([C@@H]3[C@H](CO)N4C(=O)CN(C(=O)c5ccncc5)C[C@@H]34)cc2)cc1
[50] C[C@@H]1CCCCO[C@@H](CN(C)C(=O)Nc2cccc3ccccc23)[C@H](C)CN([C@H](C)CO)C(=O)c2cc(NC(=O)C3CCCCC3)ccc2O1
[51] COc1ccc2c3c(n(C)c2c1)[C@H](CO)N(C(=O)c1ccc(F)cc1)CC31CCN(C)CC1
[52] C[C@@H]1CN([C@H](C)CO)C(=O)c2cc(NC(=O)Nc3ccc(F)cc3)ccc2O[C@@H]1CN(C)Cc1ccc(C(=O)O)cc1
[53] Cc1ccccc1S(=O)(=O)N1CCCCN2[C@@H](CO)[C@@H](c3ccc(-c4cncnc4)cc3)[C@@H]2C1
[54] CN1c2ccc(C3=CCCCC3)cc2[C@@H]2[C@@H](CCN2C(=O)C2CCOCC2)[C@H]1CO
[55] C[C@H](CO)N1C[C@H](C)[C@H](CN(C)S(=O)(=O)c2ccccc2)OCCCC[C@H](C)Oc2ccc(NC(=O)Nc3ccccc3)cc2C1=O
[56] Cc1ccc(S(=O)(=O)Nc2ccc3c(c2)C(=O)N([C@H](C)CO)C[C@H](C)[C@H](CN(C)C(=O)Nc2cccc4ccccc24)OCCCC[C@@H](C)O3)cc1

screen / no.	49	50	51	52	53	54	55	56
Vaccinia inh	-4	10	-13	22	6	9	13	35
Vaccinia inh Venus	-11	9	-19	14	-3	6	12	26

[57] COCC(=O)N1[C@H](CO)[C@@H](c2ccccc2-c2ccccc2F)[C@@H]1C#N
[58] CCCNC(=O)N1CCC2(CC1)CN(Cc1cccc(F)c1)[C@@H](CO)c1[nH]c3cc(OC)ccc3c12
[59] CCCNC(=O)C[C@H]1CC[C@@H]2[C@H](COC[C@H](O)CN2C(=O)c2ccccn2)O1
[60] C/C=C/c1ccc2c(c1)O[C@H](CN(C)S(C)(=O)=O)[C@H](C)CN([C@@H](C)CO)S2(=O)=O
[61] O=C(O)C[C@H]1CC[C@H](NC(=O)Nc2ccccc2)[C@@H](CO)O1
[62] CN1c2ccc(-c3ccccc3)cc2[C@@H]2[C@@H](CCN2C(=O)Cc2cccnc2)[C@@H]1CO
[63] C[C@@H]1CCCCO[C@@H](CN(C)C(=O)NC2CCCCC2)[C@H](C)CN([C@@H](C)CO)C(=O)c2cc(NC(=O)c3ccncc3)ccc2O1
[64] COc1cccc(S(=O)(=O)N[C@H]2CC[C@@H](CCn3cc(-c4ccccn4)nn3)O[C@@H]2CO)c1

screen / no.	57	58	59	60	61	62	63	64
Vaccinia inh	17	-4	13	-4	3	-20	23	-8
Vaccinia inh Venus	9	-2	2	-6	9	-16	10	-2

[65] C[C@H](CO)N1C[C@H](C)[C@@H](CN(C)S(=O)(=O)c2ccccc2)Oc2ncc(C#CC3(O)CCCC3)cc2C1=O
[66] C[C@@H]1CN([C@H](C)CO)C(=O)c2cc(C#CC3(O)CCCC3)cnc2O[C@@H]1CN(C)Cc1ccccn1
[67] O=C/C=C/c1ccc(/C=C/c2ccccc2)cc1
[68] O=C(C[C@H]1C[C@H]2c3cc(NC(=O)C4CCC4)ccc3O[C@H]2[C@@H](CO)O1)NCCc1ccccc1
[69] C[C@@H]1CCCCO[C@H](CN(C)Cc2ccc(C(F)(F)F)cc2)[C@@H](C)CN([C@H](C)CO)C(=O)c2cc(NC(=O)Nc3ccc4c(c3)OCO4)ccc2O1

screen / no.	65	66	67	68	69
Vaccinia inh	-2	9	11	12	-19
Vaccinia inh Venus	0	10	10	6	-16
